Screening results: PubChem, several laboratories
UUG fidelity: modulators of start codon recognition fidelity in yeast. activity score, % at 18.7 µM. S. cerevisiae UUG-firefly luciferase reporter, luminescence/redox ratio. 350,000 compounds, 0.13% hits;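 active means replicate mean at a twofold rise or more, about +100% in these data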;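 further: firefly luciferase made from a UUG start codon reports start codon fidelity; reporter light over untreated wells divided by growth signal over untreated wells; some hits fall short of that in this replicate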
HIV Env fusion: blocks HIV Env-driven cell-cell fusion; HeLa-JRFL Env/CEM21 cell fusion, luciferase; inhibition, % at 12.3 µM; 360,000 compounds, 1.1% hits; AID 651610;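 active means mean replicate inhibition score of at least 50 and every replicate individually at or above 50; inconclusive means only one of the two criteria met; inactive means mean below 50 and not all replicates reaching 50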;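 further: 0% = plate neutral controls and 100% = maraviroc near 300 nM; one replicate is shown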
Rce1 inh: inhibitors of yeast Ras-converting enzyme; Q03530; yeast membranes, quenched prenylated peptide cleavage fluorescence; calls only; 290,000 compounds, 0.27% hits;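 active means fall in fluorescence gain of 50% or more versus controls, with final raw signal at or below 3038400; inconclusive means same 50% fall but final raw signal above 3038400; inactive means fall in fluorescence gain under 50%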;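 further: plate controls were neutral control wells for no effect and wells lacking membranes for full effect; tested at 10 µM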
PABP polyA inh: PABP-poly(A) binding inhibition; PABP-poly(A) RNA binding, fluorescence polarization; inhibition, % at 35 µM; 290,000 compounds, 1% hits;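 active means 50% or more with normal probe brightness, or confirmed in later tests; inconclusive means above 50% with abnormal brightness, or retests that disagree; inactive means below 50% or failed in later tests; about a fifth of its hits are not listed in these tables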;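 further: calls also rest on retests at 20 µM and on dose response follow-up; controls were probe without protein and protein plus probe with vehicle; some compounds called inactive have numbers as strong as hits; many hits fall short of the cut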
Target sequence (P11940 whole entry, looked up): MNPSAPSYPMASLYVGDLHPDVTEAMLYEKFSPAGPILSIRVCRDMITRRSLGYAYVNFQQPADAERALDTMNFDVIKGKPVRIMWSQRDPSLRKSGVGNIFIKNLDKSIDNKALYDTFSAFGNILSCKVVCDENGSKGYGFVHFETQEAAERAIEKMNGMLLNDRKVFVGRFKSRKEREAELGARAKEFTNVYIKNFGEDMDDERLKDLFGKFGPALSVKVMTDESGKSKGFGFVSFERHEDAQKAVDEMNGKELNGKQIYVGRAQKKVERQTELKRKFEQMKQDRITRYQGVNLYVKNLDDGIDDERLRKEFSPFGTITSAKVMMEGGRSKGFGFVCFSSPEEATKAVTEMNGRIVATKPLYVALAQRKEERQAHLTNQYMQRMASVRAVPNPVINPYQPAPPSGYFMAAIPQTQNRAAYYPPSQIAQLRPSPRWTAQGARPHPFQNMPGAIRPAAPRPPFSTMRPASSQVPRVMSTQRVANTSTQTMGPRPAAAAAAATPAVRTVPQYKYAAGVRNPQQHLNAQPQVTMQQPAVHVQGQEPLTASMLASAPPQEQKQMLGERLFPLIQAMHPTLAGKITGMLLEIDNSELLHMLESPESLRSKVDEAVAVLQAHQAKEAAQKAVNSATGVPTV
MT1-MMP act inh: MT1-MMP (human) activation inhibition; HT1080 RFP-PRO-GFP cells, GFP/RFP ratio fluorescence, overnight; percent of plate control window, DMSO zero; P50281; AID 651647; 360,000 compounds, 0.061% hits; GFP/RFP ratio change, % at 20 µM;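 active means GFP/RFP ratio change of at least 30% with cell ATP level not reduced by more than half and red fluorescence within 50% of control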; further: strong numbers were not always called active
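Assay system: HT1080 RFP-PRO-GFP cells | Dosing: 20 µM single dose, 1% DMSO | Incubation: Cells overnight before dosing, compound overnight, 37 °C, 5% CO2 | Evaluation: GFP/RFP fluorescence ratio | Control set: DMSO-only wells and HT1080 RFP-L50D-GFP cell wells as references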
eIF4H inh: inhibitors of RNA binding by human eIF4H; eIF4H fluorescence polarization binding assay; Q15056; AID 2012; 290,000 compounds, 0.94% hits; inhibition, % at 35 µM;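 active means 50% or more with normal probe brightness, or confirmed in later tests; inconclusive means above 50% with abnormal brightness, or retests that disagree; inactive means below 50% or failed in later tests; about a fifth of its hits are not listed in these tables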;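 further: calls also rest on retests at 20 µM and on dose response follow-up; 0% = protein and probe with vehicle and 100% = probe without protein; strong numbers were not always called active; many hits fall short of the cut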
CSC inhib: blocks cancer stem cells. cancer stem cell-like cells viability, luminescence. inhibition, % at 7.5 µM. 300,000 compounds, 1.1% hits. AID 2717;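 active means mean at 75% or more and at least half the replicates too; inconclusive means mean and replicates disagree; tested in HMLE shEcad cells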;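 further: 0% = median of negative and 100% = median of positive control wells; the first replicate is given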
eIF4H inh retest: second read-out of eIF4H inh, no call of its own (marks repeat the call); inhibition, %; compound at 20 µM; confirmation average;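 mean of two retest wells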
PABP polyA inh retest: also measured in PABP polyA inh; calls as there; inhibition, %; compound at 20 µM; confirmation repeats;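 mean of two retest wells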
MT1-MMP act inh RFP: further read-out of MT1-MMP act inh, marked with its call; RFP signal change, %; measured here: RFP expression control read;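 0 = vehicle wells; hits needed this value within 50% of zero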
Numbers without * were called inactive; i = inactive; u = inconclusive; x = not tested or not shown.

SMILES	UUG fidelity	HIV Env fusion	Rce1 inh	PABP polyA inh	MT1-MMP act inh	MT1-MMP act inh RFP	eIF4H inh	CSC inhib	others
CC(=O)C1CCC2C3CC(C)C4(O)CC(=O)CCC4(C)C3C(O)CC12C (stereo not given)	-6	10	x	x	-2	2	x	x
CCOc1ccc(S(=O)(=O)Nc2ccn(C)n2)cc1	-6	1	x	x	3	2	x	x
CN(C)c1ccc(-c2nnn(CC(=O)NCc3ccc4c(c3)OCO4)n2)cc1	x	10	i	1	1	2	-3	10
CCNC(=O)C1(C)CCCN(C(=O)c2cc(C)n(C(C)(C)C)n2)C1 (stereo not given)	-9	-12	x	x	2	0	x	x
Cc1nn(Cc2noc(C(=O)NCC3CCCO3)n2)c(C)c1Br (stereo not given)	-1	5	i	4	-4	3	5	x
CCN1CCN(c2cc(C)c3cc(NC(=O)c4ccc5c(c4)OCO5)ccc3n2)CC1	7	-7	i	-6	-1	4	-4	13
O=C(CCc1ccccc1)NNC(=O)c1ccco1	-17	-18	i	-3	3	10	2	15
CC1=C(C(=O)OC(C)C)C(C)NC(=O)N1 (stereo not given)	-10	i	i	8	1	5	-9	2
CCOCc1nnc(NC(=O)c2ccco2)s1	-1	-29	i	-9	1	5	1	-4
CCCCCOC(=O)NCCOC(=O)Nc1ccc(C(=O)OCC)cc1	-10	-4	i	-3	2	-2	-10	-1
COCCCNC(=O)CN(c1cc(Cl)ccc1OC)S(C)(=O)=O	x	-6	i	-1	-4	-2	7	-7
CCOC(=O)c1c(C)n(C)c2ccc(O)c(CN3CCCCC3)c12	5	x	i	-5	1	2	-2	-21
CNC(=O)CC1C(=O)N(C)C(=S)N1NC(=O)c1ccccc1 (stereo not given)	-14	3	i	2	4	1	-5	1
O=S(=O)(c1ccc(Cl)cc1)n1cccn1	x	4	i	-15	-1	2	-8	-11
O=C(CCc1ccccc1)Nc1ccc(NS(=O)(=O)c2ccccc2)cc1	-6	-2	i	-3	8	0	7	6
CC(C)(C)c1ccc(-c2nnc(SCC(=O)O)n2N)cc1	-13	-87	x	-7	0	3	-4	-5
CC(Sc1nc(N)cc(N)n1)C(=O)NCC1CCCO1 (stereo not given)	-12	41	x	x	-4	-3	x	x
CCCNC(=O)C1(C)CCCN(Cc2ccc(Cl)cc2)C1 (stereo not given)	-13	-121	x	x	-1	1	x	x
Cc1cc(OCCCn2cnc3ccccc3c2=O)ccc1[N+](=O)[O-]	x	x	i	2	7	-1	6	-4
CC(C)Oc1ccc(C(CC(=O)O)NC(=O)CSc2ncn[nH]2)cc1 (stereo not given)	-15	-71	i	0	-3	-2	4	-1
COc1ccc(S(=O)(=O)N(CC(=O)NCc2ccccn2)c2ccc(Cl)cc2)cc1	-33	0	i	1	-2	-2	-1	-8
CC(=O)c1ccc(OCC(=O)NC2CCS(=O)(=O)C2)cc1 (stereo not given)	x	-13	i	-14	0	5	-11	-4
COc1ccc(NC(=O)CCCN(C)S(=O)(=O)c2ccc(C)cc2)cc1	-33	17	i	1	-12	-11	-8	-3
CC1CCCN(C(=O)C2c3ccccc3C(=O)N3CCc4ccccc4C23)C1 (stereo not given)	x	14	i	-8	-1	0	-8	-17
Cc1ccc(-c2noc(CN3CCOCC3)n2)cc1	x	x	i	-2	1	4	-6	-9
O=C(NNC(=O)C1CCC1)c1cccc(Cl)c1	-17	x	x	x	16	-2	x	-10
O=C(N/N=C/c1ccc(O)cc1)c1cc(-c2ccccc2)nc2ccccc12	-2	3	i	-5	5	4	2	15
O=C(Nc1ccc2c(c1)OCO2)Nc1ccccn1	-21	-48	i	0	4	5	-4	4
CCOCCn1c(=NC(=O)c2cc(Cl)sc2Cl)sc2cc(S(N)(=O)=O)ccc21	x	x	i	-5	x	x	-5	-6
COc1ccccc1-n1cnc2cc(C(=O)NC3CCCC3)ccc21	-28	20	i	2	6	0	-1	-2
CC(C)C[C@H](NC(=O)[C@@H]1Cc2c([nH]c3ccccc23)C2c3ccccc3C(=O)N21)C(=O)NCC1CCCO1 (stereo not given in full)	8	x	i	18	4	0	8	-2
C=CCn1c(SCC(=O)NC(=O)NCc2ccco2)nc2sc(C)c(C)c2c1=O	x	-193	i	10	2	-4	-13	3
Cc1ccc(-c2noc(CCC(=O)N3CCCC3)n2)cc1	-22	x	i	10	1	1	0	-8
CC(C)(C)C(=O)N(Cc1nc2ccccc2c(=O)[nH]1)Cc1cccs1	-10	x	x	-8	x	x	14	3
COc1ccccc1NC(=O)CC(=O)CSc1nnc(-c2ccc(C)cc2)n1-c1ccccc1	19	-90	i	5	0	-1	8	-7
O=C(NC1CCCC1)c1ccc(CS(=O)(=O)Cc2ccccc2F)o1	-13	0	i	6	-1	4	4	1

The list goes on (two carried over from the part before).
SMILES	UUG fidelity	HIV Env fusion	Rce1 inh	PABP polyA inh	MT1-MMP act inh	MT1-MMP act inh RFP	eIF4H inh	CSC inhib	others
COc1ccccc1NC(=O)CC(=O)CSc1nnc(-c2ccc(C)cc2)n1-c1ccccc1	19	-90	i	5	0	-1	8	-7
O=C(NC1CCCC1)c1ccc(CS(=O)(=O)Cc2ccccc2F)o1	-13	0	i	6	-1	4	4	1
COc1ccc(NC(=O)C(c2cc3c(cc2[N+](=O)[O-])OCO3)N(C)C)cc1 (stereo not given)	-14	x	i	-1	3	4	14	-11
COc1ccc2oc(C(=O)NC3(C)CCS(=O)(=O)C3)c(C)c2c1 (stereo not given)	x	-2	i	x	5	2	x	6
COc1ccc2[nH]cc(CCNC(=O)c3ccc4ccccc4n3)c2c1	7	2	i	1	2	2	4	-5
Cc1ccc(/C=N/NC(=O)CCCOc2ccc(Cl)cc2Cl)cc1[N+](=O)[O-]	x	x	i	-3	1	-7	-7	4
CC(C)(O)c1[nH]c2cc(F)ccc2c1C(C)(C)O	-15	19	i	3	-1	3	-3	7
CC(C)CCNS(=O)(=O)c1ccc(-c2ccc(S(=O)(=O)NCCC(C)C)cc2)cc1	3	x	i	14	5	1	-3	1
O=c1oc(-c2cccs2)nc2sc3c(c12)CCCC3	-8	-11	i	-4	1	1	-7	x
O=C(Nc1cccnc1)c1ccccc1F	-23	x	i	-3	-3	3	3	-10
c1ccc(-c2nnc(SCc3cn4ccsc4n3)o2)cc1	-24	-11	i	-16	10	-2	5	-8
CC(C)CN(C(=O)CSc1nc2ccccc2o1)c1c(N)n(Cc2ccccc2)c(=O)[nH]c1=O	1	-9	x	x	-1	-3	x	x
O=C(CC1CC2CCC1C2)N1CCN(S(=O)(=O)c2ccc(C(F)(F)F)cc2)CC1 (stereo not given)	-19	7	x	x	-1	0	x	x
Cn1c(=O)c2c(nc(CN3CCc4ccccc4C3)n2Cc2cccc(Cl)c2)n(C)c1=O	32	34	i	-2	-7	-13	-2	25
O=C(NC1CC1)c1ccc2sc([C@H]3C[C@H](O)[C@@H](CO)O3)nc2c1	-38	3	x	x	-3	-1	x	x
COc1cccc(NC(=S)NC(=O)Cc2ccc(Cl)cc2)c1	-20	7	i	-2	-2	-8	0	-4
CCOC(=O)c1c(CCl)nc2ccccc2c1C	x	-16	i	1	1	4	18	-8
O=C(NCCc1ccccc1)c1nc(-c2cccs2)no1	x	-30	i	-8	1	4	-4	0
COc1ccc(-c2cc(C(F)(F)F)nc(N3CCCCCC3)n2)cc1	-10	-9	i	0	-1	4	0	33
C=C1CC[C@@]23CC[C@]4(C)[C@@](OC2=O)([C@@H]3C1)[C@H]1O[C@H]1C1[C@@]2(C)CC[C@H](O)C(C)(C)C2CC[C@]14C (stereo not given in full)	-10	x	x	x	5	2	x	7
COc1ccc(CCNC(=O)Nc2nc(C(N)COCc3ccccc3)cs2)cc1OC (stereo not given)	0	36	x	x	0	0	x	x
CC(C)(C)c1ccc(CN(Cc2ccccc2)C(c2ccccn2)c2nnnn2C(C)(C)C)cc1 (stereo not given)	0	13	i	-9	-16	-16	-8	26
CCSc1c(C(=O)NC)ccc2c1C(=O)c1ccccc1C2=O	x	x	i	-5	3	6	8	-3
Cc1ccc(C2(C)NC(=O)N(CCOc3ccccc3)C2=O)cc1 (stereo not given)	-13	x	i	-6	2	4	0	-7
O=C(CS(=O)(=O)c1ccccc1)Nc1nc(-c2ccc(F)cc2)cs1	x	-11	i	6	2	-2	-10	1
S=C1NCN(Cc2ccco2)CN1	x	-1	i	17	3	10	4	1
C/C(=N\N1CCN(c2ccc(Cl)cc2)CC1)c1ccco1	x	-10	i	-4	2	6	-9	5
O=C(COC(=O)C1CC2C=CC1C2)Nc1ccccc1 (stereo not given)	-25	-8	i	18	-2	-2	-16	-2
CCN(CC)C(=O)c1cn(CC)c(=O)c2cc(OC)c(OC)cc12	-2	-68	i	-3	-1	8	-1	-8
COc1ccc(OC)c(-n2c(=S)[nH]c3cc(C(=O)NCCCN4CCCC4=O)ccc3c2=O)c1	x	-57	i	-4	x	x	-12	-5
O=C(NOCc1ccccc1)c1cccc([N+](=O)[O-])c1	-10	3	x	x	0	6	x	x
Cc1ccc(N2CC(C(=O)OCc3ccccc3F)CC2=O)cc1 (stereo not given)	-5	x	i	-6	1	0	-3	x
COc1cc(C(=O)NC(=S)Nc2ccc(Cl)cn2)cc(OC)c1OC	-21	-12	i	5	25	-3	0	-3
COc1ccc(NC(=S)NNC(=O)OC(C)(C)C)cc1OC	x	-1	i	-2	1	0	2	-5
CC(C)n1cc(CN2CCCC(C(=O)Nc3cccc(-c4cc5ccccc5[nH]4)c3)C2)cn1 (stereo not given)	15	-13	i	-8	2	0	-4	17
CCC(CO)Oc1cc(NCc2cc(C)cc(C)c2)c2ncn(C(C)C)c2c1 (stereo not given)	4	-3	x	x	11	6	x	x
N#CC1(Cc2ccc(Cl)cc2)c2ccccc2C=CN1C(=O)c1ccccc1 (stereo not given)	-6	x	i	7	-11	-12	2	13
Nn1c(Cc2cccc3ccccc23)nnc1SCc1ccccc1Cl	-24	-30	i	10	-2	0	-2	-13
CCCn1nc(C(=O)NC2CCCC2)c2ccccc2c1=O	-4	x	x	x	2	-1	x	-8
CCc1cc(=O)[nH]c(SCC(=O)N2CCCC2)n1	-11	x	i	x	-1	-1	x	-13
CC1(C(=O)Nc2ccc(Cl)c(Cl)c2)CCN1C(=O)CC(c1ccccc1)c1ccccc1 (stereo not given)	-1	11	x	x	1	2	x	x
Cc1ccc(S(=O)(=O)N(CC(=O)O)Cc2ccco2)cc1	x	3	i	21*	-3	0	71*	5	eIF4H inh retest=95*;PABP polyA inh retest=75*
COc1ccc([C@H]2[C@H](C(=O)C(C)(C)C)N3N=Cc4ccccc4C3C23C(=O)OC(C)(C)OC3=O)cc1 (stereo not given in full)	12	x	i	-3	-8	0	43	-7
COC(=O)c1cccc(NC(=O)c2ccccc2)c1	x	-31	i	-11	2	-3	-8	5
CSc1ccc(CN(C)CC(=O)Nc2c(F)cccc2F)cc1	-6	2	i	-8	6	-3	5	-11
CCc1c(C)nc(N)nc1Cl	-19	-4	i	7	2	5	0	-2
CC(=O)c1cc(CN2CCN(C3CCCCC3)C(CCO)C2)cs1 (stereo not given)	-4	u	i	2	1	4	1	-8

The list is partial; the hit share may differ from the screen's.
